Bioassay records (PubChem BioAssay)
N370S GC mod – N370S glucocerebrosidase modulation, Gaucher chaperone candidate; P04062; N370S GC spleen homogenate, 4MU-glucoside fluorescence; Potency, µM (highest dose often 59.4 µM), without a hit: at the top dose activity change, negative = inhibition, hits mostly inhibitors; 330,000 compounds, 0.092% hits; AID 2101; active means well fitted inhibition curve with a large enough effect; inconclusive means small, poorly fitted or top-dose-only effect, or effect the other way, or another doubt; inactive means no such curve, though single readings can be large or run the other way;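 further: 0% = full enzyme activity and -100% = no enzyme basal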
* = called active by the depositor; ? = inconclusive; & = joins results of further samples; [ ] = dose if it differs, or a comment. Potency means the concentration at half of the fitted maximal effect. Only part of the results is shown; most or all hits stand in other tables.

smiles	N370S GC mod
CCOC(=O)C(=CNc1cccc(N)n1)C(=O)OCC	-6%
CC(=O)c1cn(Cc2ccccc2)c(=O)n(Cc2ccc(F)cc2)c1=O	-11%
COc1ccc(C(=O)NNC(=O)c2ccc(S(=O)(=O)N3CCCCC3)cc2)cc1	-12%
COc1ccc(Cl)cc1C(=O)O/N=C(\N)c1ccc(Cl)cc1	-19%
CC(C)(C)NC(=O)C(c1ccc(F)cc1)N(CC1CCCO1)C(=O)CCC(=O)Nc1ccccn1 (stereo not given)	-2%
COC(=O)Cc1ccc(NC(=S)NCc2ccc(F)cc2)cc1	9%
CCCCCc1nc2sc3c(c2c(=O)n1NC(=O)c1ccc([N+](=O)[O-])cc1)CC(C)(C)OC3	3%
CCOc1ccc(N=C2C(=O)N(CN3CCOCC3)c3ccccc32)cc1	-17%
Cc1cccc(NC(=O)CN2C(=O)NC3(CCCC3)C2=O)n1	-6%
CCCCNC(=S)NNC(=O)c1csc2c1CCC(C)C2 (stereo not given)	-6%
CCN1CCN(c2cc3c(cc2F)c(=O)c(C(=O)O)cn3C2CC2)CC1	-10%&1%
CCOC(=O)c1[nH]c(C)c(C(=O)OCCOc2cccc(C)c2)c1C	1%
COc1ccc(CNC(=O)COC(=O)C2CCC(C(C)(C)C)CC2)cc1 (stereo not given)	19%
CC(=O)c1ccccc1OC(=O)COc1ccc(Cl)cc1C	-3%
COc1ccc(C2CC(c3ccc(Cl)cc3)=NN2C(=O)c2cccc([N+](=O)[O-])c2)cc1 (stereo not given)	27%
Cc1nn(C)c(Cl)c1CN1CCCC(CO)(Cc2ccccc2)C1 (stereo not given)	0%
CC1C=CCC2C(=O)N(c3ccc(Cl)cc3O)C(=O)C12 (stereo not given)	6%
Cc1ccc(CSc2nc(N)cc(=O)[nH]2)cc1	-14%
COc1cc(NCCCC(C)N)c2ncccc2c1 (stereo not given)	-10%
COc1cccc(NC(=O)c2nnn(CC(=O)Nc3cc(C)cc(C)c3)c2N)c1	-20%
COc1cccc(C(=O)NCC2CCCN2S(=O)(=O)c2cccs2)c1 (stereo not given)	-4%
CCCc1c(OCCCOc2ccc(OCC(=O)O)cc2)ccc(C(C)=O)c1O	?
COc1ccc(-c2cc(C(=O)NCCCN3CCOCC3)on2)cc1OC	-8%
Cc1ccc(C(=O)NCc2ccccn2)c(Cl)c1	5%
CCc1ccc(OCC(=O)Nc2ccc(CN3CCCCC3)cc2)cc1	-11%
CC1CN(CCn2cnc3c(N)ncnc32)CC(C)O1 (stereo not given)	-17%
NC(=O)C1(N2CCCCC2)CCN(c2nc(-c3ccc(Br)cc3)cs2)CC1	-2%
[O-][n+]1c2c(c3c4non(O)c4ccc31)CCCC2	-4%
O=C(Nc1ccc(N2CCCCC2)cc1)c1ccc([N+](=O)[O-])o1	-1%
CC(C)=CC(=O)N1CC[C@@H](N2CCN(c3ccccc3F)CC2)[C@H](O)C1	-1%
CCc1ccc(C(=O)CN2C(=O)NC(C)(CCc3ccccc3)C2=O)cc1 (stereo not given)	-15%
Cn1cnc(S(=O)(=O)N2CCN(c3ccc(Cl)cc3)CC2)c1	3%
O=C(CCl)NN1C(=O)NC(c2ccccc2)(c2ccccc2)C1=O	-1%
O=C(NCCc1nnc2ccc(NCc3ccc(Cl)cc3)nn12)c1ccccc1	-3%
CC1N/C(=C\C(=O)c2ccccc2)N(O)C1(C)C (stereo not given)	-15%
COc1ccc2c(c1)CCc1c(C(=O)NCC(C)C)noc1-2	9%
CCc1ccc(C(=O)/C=C/c2ccc([N+](=O)[O-])o2)cc1	-2%
CC(C)N(Cc1ccccc1)C(=O)COC(=O)c1cnccn1	0%
COc1cc(NC(=O)CCS(=O)(=O)c2ccc3c(c2)oc(=O)n3C)cc(OC)c1OC	-1%
Cc1ccc(NC(=O)c2ccc(NCc3ccco3)c([N+](=O)[O-])c2)cc1Cl	6%
CS(=O)(=O)N(Cc1nnc(-c2cccs2)o1)c1ccc(Cl)cc1F	0%
CCOc1cc(/C=C2\CCCc3c2nc2ccccc2c3C(=O)O)ccc1OC	-26%
CC(CN1CCOCC1)C(=O)O (stereo not given)	17%
COc1ccc(C(=O)NOCc2ccccc2)cc1	1%
COCc1cc(C)nc(SCc2nc3ccccc3c(=O)[nH]2)c1C#N	-13%
O=C(O)CCC(=O)Nc1ccc(-n2ccc(C(F)(F)F)n2)cc1	-10%
CC(C(=O)Nc1cccnc1)c1ccc([N+](=O)[O-])cc1 (stereo not given)	-3%
CNCCC(Oc1ccccc1C)c1ccccc1 (stereo not given)	-9%
Cc1ccccc1C(=O)Nc1ccccc1	1%
CC1CCN(c2ccc(-c3ccc(NC(=O)c4ccco4)cc3)nn2)CC1	-5%

Additional records
mol | N370S GC mod
Cc1ccc(S(=O)(=O)N2CCC(C(=O)NC3CCCCC3C)CC2)cc1 (stereo not given) | -13%
Cn1c(Cn2c(=O)sc3ccccc32)nnc1SCc1ccccc1 | 8%
Cc1ccc(NC(=O)c2ccc(CN3CCN(C)CC3)cc2)cc1Nc1nccc(-c2cccnc2)n1 | -9%&-8%
Cc1cc(Cn2nc(-c3ccccc3)cc2C(=O)NCc2cccc(Br)c2)on1 | 7%
O=C(CCN1CCCC1=O)NC1CCCc2c1cnn2-c1ccccc1F (stereo not given) | -4%
COc1ccc(C(=O)C2CCCN(Cc3cn[nH]c3-c3ccccc3)C2)cc1OC (stereo not given) | -9%
CC1C(NC(=O)/C(=N/OC(C)(C)C(=O)O)c2csc(N)n2)C(=O)N1S(=O)(=O)O (stereo not given) | -6%
CNC(=S)NNC(=O)c1sccc1OCc1ccc(C)cc1 | 3%
O=C(c1cccc([N+](=O)[O-])c1)N1CCOCC1 | -4%
Cn1cc(C(=O)N/N=C/C=C/c2ccccc2)ccc1=O | 0%
COc1ccccc1C(=O)N/C(=C\c1cn(S(=O)(=O)N(C)C)c2ccccc12)C(=O)N1CCCC1 | -6%
CCOC(=O)Cn1c(C)c(Br)c(=O)c2cccc(C)c21 | -14%
CC(=O)Nc1ccc(NC(=O)C(C)OC(=O)CSc2ccc(Br)cc2C)cc1 (stereo not given) | -3%
O=C(Nc1cccc(S(=O)(=O)NC2=NCCC2)c1)c1cc(Cl)ccc1[N+](=O)[O-] | -7%
CCOC(=O)CC12CN3CN(C1)CC(CC(=O)OCC)(C3)C2=O | -3%
COc1ccc2nc(NC(=O)CCc3ccc(OC)c(OC)c3)sc2c1 | -8%
Cc1cc(C)nc(N(C#N)C(C)C(=O)N(C)C)n1 (stereo not given) | -7%
COc1ccc(NC(=O)CSc2ncnc3[nH]ncc23)cc1 | -8%
O=C(CNC(=O)C1CCCCC1)Nc1ccccc1Cl | 0%
O=S(=O)(NCC1CCCO1)c1ccc(NS(=O)(=O)c2ccc(F)cc2)cc1 (stereo not given) | -8%
CC1(C)CC(=O)N(CC(=O)O)c2ccccc2S1(=O)=O | 4%
O=C(OCN1C(=O)c2ccccc2C1=O)c1ccco1 | 16%
COc1cc(-c2nnc(SCC(=O)OC3CCCCC3)o2)cc(OC)c1OC | 2%
O=C(NCCSCc1ccccc1)c1ccccc1 | 6%
O=C1O[C@H](CN2CCOCC2)CN1/N=C\c1ccc([N+](=O)[O-])o1 | 1%[21.6 µM]
O=C(CN1C(=O)NC2(CCCC2)C1=O)OCCOc1cccc(Cl)c1 | -10%
COc1ccc(N2CC(NC(=O)N(C)CCC#N)CC2=O)cc1 (stereo not given) | 8%
O=C(Nc1nccs1)c1cccnc1 | 0%
O=C(c1ccccc1)c1ccc(N2CCN(C(=O)c3cccc(F)c3F)CC2)c(F)c1 | -1%
O=C(CSCC(=O)NC1CC1)Nc1ccccc1 | 3%
CCCN(C(=O)CSCC(=O)Nc1cccc(C)c1)c1c(N)n(Cc2ccccc2)c(=O)[nH]c1=O | -3%
CN(CCN(C)C(C)(C)C)C(=O)C(c1ccccc1)c1ccccc1 | -6%
Cc1nc(N2CCN(S(=O)(=O)c3ccc(F)cc3)CC2)c2c(-c3cccs3)csc2n1 | -13%
Cc1ccc(S(=O)(=O)N(C)CC(=O)N2CCCc3ccccc32)cc1 | -8%
COCCN(C(=S)Nc1ccc(OC)c(Cl)c1)C1CCN(C(C)C)CC1 | 2%
CCOC(=O)c1cnn(-c2ccccc2)c1NC(=O)CCl | 3%

Pulled by compound from above, 5 records:
mol | N370S GC mod
CNCCC(Oc1ccccc1C)c1ccccc1 (stereo not given) | -9%
O=C(CSCC(=O)NC1CC1)Nc1ccccc1 | 3%
Cc1ccc(C(=O)NCc2ccccn2)c(Cl)c1 | 5%
O=C(CCN1CCCC1=O)NC1CCCc2c1cnn2-c1ccccc1F (stereo not given) | -4%
O=C(NCCc1nnc2ccc(NCc3ccc(Cl)cc3)nn12)c1ccccc1 | -3%

Next section.
mol | N370S GC mod
C=CC[n+]1c(-c2ccc(C)cc2)csc1Nc1c(C)n(C)n(-c2ccccc2)c1=O | -4%
CCO/C([O-])=N/c1sn[n+](C)c1C | -4%
CCOC(=O)C(C)Sc1ccc2nnc(CCNS(=O)(=O)c3ccc(C)cc3)n2n1 (stereo not given) | 2%
CCN(Cc1ccccc1)C(=O)Cn1c(=O)n(CC(=O)NCc2ccco2)c(=O)c2sccc21 | 3%
NS(=O)(=O)c1ccc(CCNC(=O)CN2CCCCC2)cc1 | -2%
Cc1nn(C)c(C(=O)NN)c1Cl | -2%
COc1ccc(C(=O)N/N=C(\C)c2ccccn2)cc1OC | 5%
CCOC(=O)Cn1nnnc1CN(Cc1ccc(OC)cc1)Cc1cc2cc(C)ccc2[nH]c1=O | -2%
CCOc1ccc(/C=C/C(=O)Nc2ccc(N3CCOCC3)cc2)cc1 | 8%
Cc1cc(OCCCC(=O)NC2=NCCS2)ccc1Cl | -2%
Cn1c(N)c(Sc2ccc(F)cc2)c(=O)n(C)c1=O | 14%
O=C(NC1CCCCC1)Sc1ccc(Cl)cc1 | 17%

Some of these compounds in order of the N370S GC mod value, falling.
| Molecule | N370S GC mod |
| --- | --- |
| CCOc1ccc(/C=C/C(=O)Nc2ccc(N3CCOCC3)cc2)cc1 | 8% |
| COc1cc(NC(=O)CCS(=O)(=O)c2ccc3c(c2)oc(=O)n3C)cc(OC)c1OC | -1% |
| CCOC(=O)CC12CN3CN(C1)CC(CC(=O)OCC)(C3)C2=O | -3% |
| O=C(CCN1CCCC1=O)NC1CCCc2c1cnn2-c1ccccc1F (stereo not given) | -4% |
| Cc1cc(C)nc(N(C#N)C(C)C(=O)N(C)C)n1 (stereo not given) | -7% |

Additional records
mol | N370S GC mod
CCOC(=O)N1CCN(Cc2nc3c(c(=O)[nH]c(=O)n3C)n2Cc2cc(C)ccc2C)CC1 | 3%
Cc1nn(-c2ccccc2)c(C)c1/C=N/NC(=O)c1cc(-c2ccccc2)n[nH]1 | -13%
CC(=O)Nc1ccc(Oc2nc(C)cc(C)n2)cc1 | 5%
Cc1cccc(NC(=O)CSc2nc(-c3ccccc3)c(C#N)c(=O)[nH]2)c1C | 27%
O=C(COc1ccccc1C(=O)O)NC1CCCc2ccccc21 (stereo not given) | 26%
O=C(NNC(=O)C1CCCC1)c1ccccc1F | 0%
CC[C@@H]1OC(=O)[C@H](C)[C@H](O[C@@H]2C[C@](C)(OC)[C@H](O)[C@H](C)O2)[C@H](C)[C@H](O[C@@H]2O[C@@H](C)C[C@@H](N(C)C)[C@@H]2O)[C@](C)(O)C[C@H](C)C(=NOCOCCOC)[C@H](C)[C@H](O)[C@]1(C)O | -8%[21.6 µM]
O=C(C1CCOCC1)N1CCC(CO)(CCc2ccccc2)CC1 | 4%
Cc1ccc(C)c(C(=O)CN2C(=O)NC3(CCCCCCC3)C2=O)c1 | 1%
COCCNC(=O)C(c1ccc(C)cc1)N(CCOC)C(=O)CCC(=O)Nc1nccs1 (stereo not given) | 1%
Cn1c(SCc2cc(=O)[nH]c(C(C)(C)C)n2)nnc1C(F)(F)F | 4%
O=C(CC1NCCNC1=O)OCCCc1ccccc1 (stereo not given) | -4%
COc1ccc(C)cc1NC(=O)c1nnn(Cc2cccc(F)c2)c1N | 5%
O=C(O)CC12CC3CC(C1)CC(n1cncn1)(C3)C2 | -7%
Oc1c(Cl)cc(Cl)c2cccnc12 | -12%&-2%
COc1ccc(S(=O)(=O)NC2CCCCC2)c(C)c1C | 5%
Cc1c(C(=O)NC(C)CCc2ccccc2)cccc1[N+](=O)[O-] (stereo not given) | -10%
COc1ccc2c(c1[N+](=O)[O-])CCC/C2=N/OC(=O)c1ccccc1SC | -4%
CCOC(=O)c1oc2ccccc2c1CN1CCOCC1 | 0%
COC(=O)Cc1csc(Nc2ccc(Cl)cc2)n1 | -1%
Cc1nn(Cc2ccccc2Cl)c(C)c1N | -1%
Cc1ccc(NS(=O)(=O)c2ccc(-c3cnc(C4CC4)o3)cc2)cc1 | -7%
O=C(Nc1cccc(-c2cn3ccccc3n2)c1)C1CC1 | 1%
CC(=O)Nc1cccc(CP(=O)(c2ccccc2)c2ccccc2)c1 | 4%
CC[n+]1c(/C=C/N(C)c2ccccc2)oc2ccccc21 | -29%
Cc1ccc(CS(=O)(=O)c2ncc(Cl)c(C(=O)Nc3nnc(C)s3)n2)cc1 | -20%
Cc1cccnc1NC(=O)CCCNC(=O)c1ccc(Cl)cc1 | 0%
CCOC(=O)N1CCC(Nc2ncnc3c2cnn3-c2ccc(Cl)cc2)CC1 | 9%
CCc1ccc(NC(=O)c2noc3c2CCC3)cc1 | 7%
C=CCn1c(N)cc(=O)nc1SC(C)C(=O)Nc1ccc(C(=O)OCC)cc1 (stereo not given) | 0%
C=CCN(CC=C)CCCOc1ccccc1C(=O)OC | 6%
CCc1cccc(NC(=O)CN(c2ccc(C)cc2)S(=O)(=O)c2c(C)noc2C)c1 | 4%
CCc1ccc(NC(=O)CCC(=O)Nc2nnc(C(C)C)s2)cc1 | -7%
CC(SCc1ccccc1)C(=O)NCc1ccccn1 (stereo not given) | 4%
O=C(CSCc1ccccc1Cl)N1CCN(c2ccccn2)CC1 | 25%[12.8 µM]
CCn1c(=O)n(CC)c2cc(N3CCCC3)c(NC(=O)c3ccccc3Br)cc21 | -15%
Cc1noc(NS(=O)(=O)c2ccc(N)cc2)c1C | 14%
O=C(O)COc1ccccc1/C=N/NC(=O)c1cccc(S(=O)(=O)N2CCOCC2)c1 | 0%
